Screening results deposited in PubChem by National Center for Advancing Translational Sciences (NCATS).
ClpP mod: qHTS Assay for Activators of ClpP; 340,000 tested, 1.9% active; ATP-dependent Clp protease proteolytic subunit (Bacillus subtilis (strain 168)), P80244; purified B. subtilis ClpP, FRET peptide cleavage, 20 min; Potency, µM (top dose mostly 57.5 µM), without a hit: at the top dose activity change, negative = active; AID 651965, 2013; active = well fitted falling curve with a large enough effect; inconclusive = small, poorly fitted or top-dose-only effect; inactive = no such curve, though single readings can be large or run the other way; further: potency means the concentration at half of the fitted maximal effect; the source files actives as falling curves though it sought activators and does not explain the sign; nearly all actives have a fitted effect of over 65% in size; many hits overshoot -100%
Target sequence (P80244 whole entry, looked up): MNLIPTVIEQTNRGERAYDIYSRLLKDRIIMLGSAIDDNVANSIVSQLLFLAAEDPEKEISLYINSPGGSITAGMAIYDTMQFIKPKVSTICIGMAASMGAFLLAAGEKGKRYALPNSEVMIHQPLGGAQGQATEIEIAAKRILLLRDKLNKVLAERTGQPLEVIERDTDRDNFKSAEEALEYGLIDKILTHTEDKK
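Purified B. subtilis ClpP, 10 microg/mL final in Tris/HCl pH8 with KCl, BSA, glycerol and Tween-20, cleaved an Abz/nitrotyrosine-quenched decapeptide. Fluorescence (ex 320, em 430) was read at 0 and 20 min at room temperature. Delta was normalized to 5.8 microM ADEP and DMSO/no-enzyme controls.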
TRPV1 PAM: potentiators of human vanilloid receptor 1 (TRPV1) | Q8NER1 | TRPV1-expressing cells, Fluo-8 calcium influx, capsaicin EC20 potentiation; host cell line not named in the record; control for the full effect not named in the record | potentiation, % at 8.33 µM | 320,000 tested, 0.02% active; active means potentiation above 80%; inconclusive means 30% to 80%; inactive means below 30%; further: 0% is about no effect
Target sequence (Q8NER1 whole entry, looked up): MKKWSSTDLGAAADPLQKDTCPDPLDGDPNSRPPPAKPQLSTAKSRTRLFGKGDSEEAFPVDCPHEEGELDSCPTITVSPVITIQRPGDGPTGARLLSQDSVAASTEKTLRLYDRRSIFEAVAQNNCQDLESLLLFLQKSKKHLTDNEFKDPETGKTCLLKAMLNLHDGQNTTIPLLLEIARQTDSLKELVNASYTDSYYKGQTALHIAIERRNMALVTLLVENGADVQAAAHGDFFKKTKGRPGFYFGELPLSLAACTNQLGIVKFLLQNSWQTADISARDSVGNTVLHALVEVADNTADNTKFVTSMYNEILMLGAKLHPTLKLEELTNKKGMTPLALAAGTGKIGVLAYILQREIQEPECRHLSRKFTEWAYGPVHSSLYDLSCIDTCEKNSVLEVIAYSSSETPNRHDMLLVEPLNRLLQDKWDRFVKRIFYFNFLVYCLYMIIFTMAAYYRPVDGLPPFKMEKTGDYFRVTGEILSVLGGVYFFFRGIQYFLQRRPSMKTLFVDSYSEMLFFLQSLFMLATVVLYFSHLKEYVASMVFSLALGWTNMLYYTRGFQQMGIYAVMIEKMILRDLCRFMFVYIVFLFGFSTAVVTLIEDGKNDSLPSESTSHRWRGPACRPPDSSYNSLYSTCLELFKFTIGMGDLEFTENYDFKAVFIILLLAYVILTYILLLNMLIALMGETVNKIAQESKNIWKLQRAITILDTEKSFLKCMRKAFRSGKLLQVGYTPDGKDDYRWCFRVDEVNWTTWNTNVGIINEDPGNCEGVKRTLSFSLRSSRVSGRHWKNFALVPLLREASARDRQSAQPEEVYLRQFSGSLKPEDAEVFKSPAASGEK
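Fluo-8 calcium influx in TRPV1-expressing cells, kinetic read (ex 480/em 520 nm). Compound added and read 3 min for agonist activity, followed by capsaicin at EC20 final and 2 min further read for enhancement.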
gsp agonist: gsp mutant agonism. 340,000 tested, 0.13% active. Potency, µM (doses to about 76.9 µM), without a hit: at the highest dose activation (cAMP increase), actives largely listed as activators. gsp mutant cells, cAMP HTRF, 30 min; control for the full effect not named in the record; active = well fitted activation curve with a large enough effect; inconclusive = small, poorly fitted or top-dose-only effect, or another doubt; inactive = no such curve, though single readings can be large or run the other way; cell line not stated here;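 further: phosphodiesterase inhibitor Ro 20-1724 added with compounds to block cAMP breakdown; potency means the concentration at half of the fitted maximal effect; nearly all actives have a fitted effect of over 60% in size; about a fifth of the inactives were tested at one dose only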
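Cells in DMEM/10% FBS with G418 were pretreated with compounds in DMSO plus […] (300 uM stock) for 30 min at 37C. cAMP was measured by HTRF (cAMP-d2 plus anti-cAMP antibody-K) after 30 min at room temperature.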
TRPML1 inh: human mucolipin-1 channel inhibition | TRPML1-inducible cells, Ca2+ dye fluorescence, FDSS; active compounds read low; inhibition of EC80 agonist-evoked calcium signal | 390,000 tested, 0.02% active | Q9GZU1 | activity change, negative = inhibition, % (concentration not given with the values); in the data active means activity change below about -50%; inconclusive means about -30% to -50%; inactive means above about -30%;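 further: stimulus is agonist 54-4 at its EC80 concentration; on the % scale 0 is the no-effect control and ±100 the full control effect; the text of the record puts the active cut at -80%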
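Tet-induced TRPML1-DL cells loaded with Ca8 no-wash calcium dye were read kinetically on FDSS. Compound addition was followed by EC80 agonist 54-4 (4 uM final); inhibition was read over 110 s.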
Menin-MLL FL inh: menin-MLL binding inhibition, fluorescein peptide; Fluorescence polarization, fluorescein-MLL peptide displacement from menin; FP activity change, % at 61.4 µM; 290,000 tested, under 10 active; AID 1766; inconclusive = falling polarisation curve, or a change in total fluorescence; inactive = total fluorescence flat and polarisation flat or rising; no compound was filed as active; the % refers to the polarisation; negative = inhibition;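 further: % of control where 0% means no effect; inhibitors lower the polarisation; unlabelled MLL peptide was the positive control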
gsp antagonist: antagonists of gsp mutant (McCune-Albright syndrome). Potency, µM (titrated, usually from 76.9 µM), for the others: at the highest dose activity change, negative = inhibition, actives largely listed as inhibitors. gsp-mutant cells, cAMP HTRF, 30 min; control for the full effect not named in the record. AID 624288. 340,000 tested, 0.4% active; active = falling curve of any shape with a large fitted effect; inconclusive = falling curve, mostly with a smaller effect; inactive = flat or rising curve; cell line not stated here;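 further: intracellular cAMP measured with PDE inhibitor Ro 20-1724 present during compound exposure; potency means the concentration at half of the fitted maximal effect; on the % scale 0 is the no-effect control and ±100 the full control effect; nearly all actives have a fitted effect of over 65% in size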
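HTRF cAMP read-out (cAMP-d2 plus anti-cAMP antibody-K in lysis buffer, 30 min RT). Before lysis, cells are exposed to compounds with […] for 30 min at 37C in DPBS containing Ca/Mg, BSA and Tween 20.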
Sfp inh: Sfp phosphopantetheinyl transferase inhibition. Biochemical Sfp PPTase activity, qHTS. Potency, µM, inactives show max response, negative = inhibition, actives largely listed as inhibitors. Q9F4F7. 310,000 tested, 3.5% active; active means well fitted inhibition curve with a large enough effect; inconclusive means small, poorly fitted or top-dose-only effect, or another doubt; inactive means no such curve, though single readings can be large or run the other way;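 further: the enzyme is Sfp with the accession as filed and its product quenches rhodamine fluorescence; potency means the concentration at half of the fitted maximal effect; 0% = enzyme reaction without inhibitor and -100% = no enzyme wells; top concentration of the series not given in the record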
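Step 1, compound plus 15 nM Sfp-PPTase, 15 min, room temperature. Step 2, add rhodamine-CoA (5 uM) and BHQ-2-YbbR (12.5 uM). Step 3, read 525/598 nm fluorescence at 0 and 30 min.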
Starred values were filed as active, the others as inactive; ? = inconclusive; / = no result given; & = joins results of further samples; [ ] = remark or other dose.

Fields – ClpP mod, TRPV1 PAM, gsp agonist, TRPML1 inh, Menin-MLL FL inh, gsp antagonist, Sfp inh
C/C=C/C=C/[C@H]1Cc2cc(O)cc(O)c2O1
    /, -1, /, /, ?, /, -15%
Cc1nc(-c2cnn(-c3ccccc3)c2)c2cc(C)oc2n1
    28%, -14, -1%, 2, -0.6, -20%, ?
COc1ccccc1-n1cnnc1SCC(=O)Nc1cc(C)on1
    /, ?, -30%[inhibitor], 3, -2.5, 2%, 9%
CC(=O)NC(CC(=O)Nc1cccc(S(=O)(=O)N2CCOCC2)c1)c1ccccc1 (stereo not drawn)
    /, -5, -19%[15.4 µM], -3, /, 5%, /
COc1ccc(C2NCCc3c2[nH]c2ccccc32)cc1CSc1nc2ccccc2s1 (stereo not drawn)
    -4.2%, 1, -13%, -24, 0.2, 9%, 45µM*
CCCOc1ccccc1NC(=O)/C=C/c1ccc(OC)c(S(=O)(=O)N2CCOCC2)c1
    2.0%, /, 3%, -6, /, /, /
O=C(O)CNC(=S)N(Cc1ccccc1)Cc1cccs1
    /, -3, 8%, -5, -0.3, -3%, 10%
CCOc1ccc(C2C(C#N)=C(N)Oc3nc[nH]c(=O)c32)cc1 (stereo not drawn)
    -0.3%, 10, -2%[15.4 µM], -9, 0.0, 6%, -1%
Cc1ccc(S(=O)(=O)N2CCN(C(=O)COC(=O)CCOc3cc(C)ccc3C)CC2)c(C)c1
    -3.1%, /, 29%, -25, /, 7%, /
CC1CN(C(=O)CN2C(=O)NC3(CCCCCC3)C2=O)CC(C)O1 (stereo not drawn)
    0.2%, -4, -2%, -4, 4.8, 14%, 8%
CC(C)COc1ccc(C(=O)NC(=S)Nc2ccc(CN3CCOCC3)cc2)cc1
    /, 1, 5%[15.4 µM], -9, 4.5, 7%, 2%
O=c1cc(CO)oc(C(Nc2ccccn2)c2ccccc2Cl)c1O (stereo not drawn)
    /, 4, 21%, -1, -1.3, -4%, 50µM*
CCCCCNC(=O)c1c[nH]c2ccc(S(=O)(=O)N3CCC4(CC3)OCCO4)cc2c1=O
    16µM*, -9, -38%[inhibitor], 2, 2.8, -4%, 22%
CC(C)(C)n1nc2c(c1NC(=O)c1ccc(S(=O)(=O)N3CCCCC3)cc1)CS(=O)C2 (stereo not drawn)
    -6.6%, 7, -23%, -30, -1.5, 2%, 15%
CC(=O)CCN1C(=O)NC2(CCCc3ccccc32)C1=O (stereo not drawn)
    -0.4%, 0, 28%, 7, 0.4, 3%, -1%
CC(C)(C)C(=O)Nc1nc(-c2ccccc2)ns1
    -1.1%, -4, 4%, 1, 3.5, -20%, -6%
COc1ccccc1NC(=O)NCc1ccccc1F
    0.4%, 3, 1%, -3, 2.9, -6%, 12%
COc1ccccc1CC(=O)NCCc1ccccc1
    -3.2%, -3, ?, 3, 1.8, 0%, 5%
Cc1nc2c(C)cccn2c1/C(O)=C1\C(=O)C(=O)N(CCN(C)C)C1c1ccncc1 (stereo not drawn)
    0.1%, 10, 1%, 8, 3.6, 3%, 5%
CCOC(=O)c1c2c3c(cccc3n(C)c1=O)C(=O)c1ccccc1-2
    /, -15, ?, -7, ?, 0%, -29%
CN1CCC(N(C)S(=O)(=O)c2ccc(NC(=O)COc3ccc(F)cc3Cl)cc2)CC1
    -1.2%, 19, 3%, 27, /, 9%, -8%
COc1ccc(C2c3ccc(O)cc3Oc3ncn(CCCO)c(=N)c32)cc1 (stereo not drawn)
    -2.3%, -2, -15%, -4, 2.4, -8%, -14%
COCCNC(=O)COc1ccc(C)c(C)c1
    -8.8%, -9, ?, -1, 0.4, 0%, -12%
CC(=O)c1cccc(N(CC(=O)NC2CCCC2)C(=O)CNC(=O)c2cccs2)c1
    -1.0%, 1, 10%[15.4 µM], 1, 1.5, 0%, 20%
CCCSc1nnc2n(N)c(=O)c3ccccc3n12
    -1.1%, 3, 4%, 22, 4.8, 13%, 26%
COc1ccc(CSc2nc3nc(C)cc(C)n3n2)cc1F
    -1.8%, 6, 6%, -1, 0.7, -2%, -25%
COc1cc(O)c(C(CCN2CCCC(C)C2)c2ccc(N(C)C)cc2)c(OC)c1 (stereo not drawn)
    -0.9%, 6, 5%, 3&-10, 0.6&2.7, -1%, -7%&-7%
Cc1noc(C)c1COc1ccc(C(=O)OC(C)C(=O)Nc2ccc(N3CCOCC3)cc2)cc1 (stereo not drawn)
    -1.0%, 2, -1%, -13, 0.2, -4%, 12%
Cc1ccc(-n2ncc(C#N)c2/N=C/N2CCCCCC2)cc1
    -0.4%, 17, -22%, -9, -3.9, ?, -2%
COc1cc(-c2nc(-c3cccc(C(F)(F)F)c3)no2)cc(OC)c1OC
    ?, 9, -18%, 40, -0.1, -1%, 13%
COc1ccc(CN(C)C(=O)Cn2ccc(NC(=O)OCc3ccccc3)nc2=O)cc1OC
    -1.3%, 21, /, 6, /, 6%, /
CCOc1ccc(CCNC(=O)c2cccc(NC3=NC4CS(=O)(=O)CC4S3)c2)cc1 (stereo not drawn)
    -0.9%, -7, ?, -2, -2.4, -6%, 15%
N#Cc1ccccc1NC(=O)c1ccccc1OCC(=O)NCc1ccco1
    -1.3%, -2, 22%, 5, 3.8, 13%, -24%
Nc1nonc1-n1nnc(C(=O)N/N=C/c2ccccc2)c1CN1CCc2ccccc21
    /, 26, -15%, 13, -1.7, -11%, 11%
CC12CCC(C(S(=O)(=O)Nc3ccccc3)C1=O)C2(C)C (stereo not drawn)
    /, /, -21%, 8, /, 0%, /
O=C(OC1CCOC1=O)c1cccc(S(=O)(=O)N2CCc3ccccc3C2)c1 (stereo not drawn)
    /, 21, 9%[15.4 µM], 18, 3.5, -17%, 5%
Cc1cccc(C)c1NC(=O)NC1(C(=O)N2CCN3CCCC3C2)CCCCC1 (stereo not drawn)
    /, -1, -4%, 3, -0.4, 5%, 22%
CCc1ccc(C(=O)OCC(=O)N(CC)c2c(N)n(Cc3ccccc3)c(=O)[nH]c2=O)cc1
    2.1%, -1, 23%, 8, /, 0%, /
COC1C=CC(CNC(=O)c2cc3c(=O)n4cccc(C)c4nc3n2C)(OC)O1 (stereo not drawn)
    3.6%, 5, -367%[inhibitor], -11, -4.2, -24%, 3%
CC(=O)Oc1c(S(=O)(=O)c2ccccc2)c(C)nn1C(C)(C)C
    -0.6%, -4, -8%, 5, -1.9, -19%, -5%
CCNC(=O)c1c(C)nc2ccccn12
    -25%, 5, -19%, 0, 2.4, 6%, 1%
COc1cc(S(=O)(=O)NCc2ccc3c(c2)OCO3)ccc1Cl
    -0.5%, 1, -4%, 5, 5.2, 2%, 23%
O=C1NC(=O)C2(CCCc3c([N+](=O)[O-])cccc32)N1 (stereo not drawn)
    -1.7%, /, -5%, 11, /, /, /
CC(C)(C)n1ncc2c(=O)n(CC(=O)Nc3ccc4c(c3)OCO4)cnc21
    1.2%, -2, ?, 10, -0.9, -4%, 9%
Cc1cc(C(=O)N/N=C\c2cc(C(C)(C)C)ccc2O)n[nH]1
    -3.4%, -5, ?, -5, /, -11%, 21%
CC(C)CC(=O)Nc1ccc(C(=O)Cn2nc(C(=O)O)c3ccccc3c2=O)cc1
    28µM*, -3, ?, 10, 3.0, 6%, ?
Cn1cnnc1SCC(=O)NCCc1ccccc1
    0.8%, 5, -7%, -15, -2.9, -6%, 7%
C/C=C(/C)C(=O)O[C@@H]1Cc2c(ccc3ccc(=O)oc23)OC1(C)C
    4.3%, /, -21%, 39, /, -8%, /
Cn1c(N)c(C(=O)COC(=O)CSc2ccccc2)c(=O)n(C)c1=O
    -1.5%, 11, -3%[15.4 µM], -10, -3.6, -14%, 22%
COc1ccc(-c2cc(C)no2)cc1S(=O)(=O)N1CCOc2ccc(Cl)cc21
    2.5%&1.4%, ?, ?, 5&1, 8.1, 3%, 19%
CCOC(=O)C1CCN(Cc2cnc(Oc3ccc(Cl)cc3C)s2)CC1
    -1.5%, /, 10%, 3, 5.7, 1%, -3%
COc1ccc(CN(C)C(=O)C(Cc2ccccc2)NC(=O)c2ccccc2)c(OC)c1OC (stereo not drawn)
    -2.4%, /, -22%, 2, /, /, /
CCCSc1nc(N)nc(-c2cccs2)c1C#N
    25µM*, ?, ?, -10, 0.8, -10%, 0%
Cc1ccc2oc(NC(=O)N3CCOCC3)cc(=O)c2c1
    ?, -1, 0%, 16, 2.6, -1%, -3%
O=C(Nc1c(C(=O)O)[nH]c2ccccc12)c1cccc(C(F)(F)F)c1
    /, 14, 19%[15.4 µM], 3, 9.0, -5%, 20%
CCN(CC)CCCNc1cc2n(c(=O)n1)CCc1cc(OC)c(OC)cc1-2
    25µM*, 2, 3%, 2, 5.2, 6%, 6%
CSc1nc(C(=O)N2CCCC(C(=O)c3ccc(Cl)cc3)C2)cs1 (stereo not drawn)
    -0.3%, -22, 14%, -19, 0.0, -17%, 7%
CCOC(=O)c1c(NC(=O)c2ccc(Br)o2)sc2c1CCCC2
    32µM*, -1, 11%, -4, 0.7, -6%, ?
CN(CC(=O)NCCc1ccc(S(N)(=O)=O)cc1)CC(=O)Nc1ccc(F)c(F)c1F
    /, /, 27%, 11, /, 10%, /
COc1ccc(Cl)c2sc(N(CCN(C)C)C(=O)c3ccc4c(c3)OCCO4)nc12
    /, 29, 5%[15.4 µM], 12, /, 10%, /

The list continues:
Fields – ClpP mod, TRPV1 PAM, gsp agonist, TRPML1 inh, Menin-MLL FL inh, gsp antagonist, Sfp inh
COc1ccc(/C=C2/C(=O)N(Cc3ccccc3)N=C2C)cc1
    55%, -7, 20%, 8, 6.1, 14%, 12%
O=C(CN1C(=O)C2CC=CCC2C1=O)Nc1nnc(SCc2ccc(F)cc2)s1 (stereo not drawn)
    -1.1%, -2, -4%, -6, 2.4, 6%, -1%
Cc1cc(C)nc(N/N=C/c2ccc(Cl)cc2)n1
    -2.5%, 3, -14%, 19, 1.4, 0%, ?
COc1ccc(NS(=O)(=O)c2ccc(C)c(C(=O)N(C)CC(=O)Nc3cccc(OC)c3)c2)cc1
    -5.2%, -13, 10%[15.4 µM], -14, /, 0%, /
